Assay outcomes from PubChem.
Vaccinia inh = Vaccinia orthopox stage-specific inhibition. Vaccinia-infected cells, mCherry/Venus stage reporter fluorescence; hits give low values; some inactives read as strong as hits. activity change (mCherry), % (no concentration beside the values). hit rate 0.01% among 89,000. AID 1053133;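 active = mCherry past -33% and 40 or more points under the early reporter, replicates agreeing; inconclusive = past -33% without that gap or agreement; tested in A549 cells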;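 also: scaled between vehicle wells and reference inhibitor wells; 23 nL library stock went into each well; one replicate is shown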
Vaccinia inh Venus = also measured in Vaccinia inh; calls as there; activity change (Venus), %; measured here: Venus reporter, other viral stage;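 negative = less Venus signal; first of two replicates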
* marks the source's active call; other numbers are inactive results; & = joins results of further samples. A portion of the library; the hit share may differ from the screen's.

Sample of the layout:
O=C(C[C@H]1C=C[C@H](NC(=O)C2CC2)[C@H](CO)O1)NCCCN1CCOCC1 was read as Vaccinia inh -2.1 and Vaccinia inh Venus -1.9.
COCCNC(=O)[C@H]1[C@H](CO)[C@H]2Cn3c(ccc(-c4ccccc4)c3=O)[C@@H]1N2C(=O)NC(C)C was read as Vaccinia inh 11.6 and Vaccinia inh Venus 11.1.

The list itself, from the start:
O=C(C[C@H]1C=C[C@H](NC(=O)C2CC2)[C@H](CO)O1)NCCCN1CCOCC1 was read as Vaccinia inh -2.1 and Vaccinia inh Venus -1.9.
COCCNC(=O)[C@H]1[C@H](CO)[C@H]2Cn3c(ccc(-c4ccccc4)c3=O)[C@@H]1N2C(=O)NC(C)C was read as Vaccinia inh 11.6 and Vaccinia inh Venus 11.1.
CN1C(=O)c2cc(NC(=O)Nc3ccc(Cl)cc3)ccc2OC[C@@H]2O[C@@H](CC(=O)O)CC[C@@H]21 was read as Vaccinia inh 0.0 and Vaccinia inh Venus 1.9.
For C[C@H]1CN([C@@H](C)CO)S(=O)(=O)c2ccc(C3=CCCCC3)cc2O[C@@H]1CN(C)C(=O)Cc1ccccc1 the results were Vaccinia inh inconclusive.
Screening N#C[C@H]1[C@H](c2ccccc2)[C@H](CO)N1C(=O)c1ccccc1F returned Vaccinia inh 8.9 and Vaccinia inh Venus 13.4.
`CCCN1[C@@H]2Cn3c(ccc(C4=CCCC4)c3=O)[C@H]1[C@@H](C(=O)N(C)C)[C@@H]2CO` gave Vaccinia inh -3.1 and Vaccinia inh Venus 3.7.
`C[C@@H]1CN([C@H](C)CO)C(=O)Cc2cc(NC(=O)Nc3ccc(F)cc3)ccc2O[C@H]1CN(C)C(=O)Nc1cccc2ccccc12` gave Vaccinia inh 15.1 and Vaccinia inh Venus 9.8.
`C[C@@H]1CN([C@@H](C)CO)C(=O)c2cc(/C=C/c3ccccc3)cnc2O[C@@H]1CN(C)Cc1ccccc1` gave Vaccinia inh inconclusive.
`C[C@H]1CN([C@@H](C)CO)S(=O)(=O)c2ccc(C3=CCCC3)cc2O[C@H]1CN(C)Cc1ccccn1` gave Vaccinia inh 23.9 and Vaccinia inh Venus 13.9.
C[C@H]1CN([C@@H](C)CO)C(=O)c2cccc(NC(=O)C3CC3)c2O[C@H]1CN(C)C(=O)Nc1ccc2c(c1)OCO2 was read as Vaccinia inh 14.7 and Vaccinia inh Venus 18.9.
`C[C@@H]1CN([C@H](C)CO)C(=O)Cc2cc(NC(=O)Cc3cn(C)c4ccccc34)ccc2O[C@@H]1CN(C)Cc1ccccc1` gave Vaccinia inh -22.7 and Vaccinia inh Venus -6.0.
`COc1ccc(NC(=O)N2CCC3(CC2)CN(C(=O)CN2CCOCC2)[C@@H](CO)c2[nH]c4cc(OC)ccc4c23)cc1` gave Vaccinia inh 7.0 and Vaccinia inh Venus 2.2.
Screening CC=Cc1ccc2n(c1=O)C[C@H]1[C@H](CO)[C@@H](C(=O)NCc3ccc(F)cc3)[C@@H]2N1S(C)(=O)=O (mixture of isomers) returned Vaccinia inh 7.7 and Vaccinia inh Venus 3.6.
For Cc1cc(C(=O)Nc2cccc3c2O[C@@H](CN(C)Cc2ccc(C(=O)Nc4ccccc4N)cc2)[C@H](C)CN([C@@H](C)CO)C3=O)n(C)n1 the results were Vaccinia inh -13.0 and Vaccinia inh Venus -0.8.
O=C(Cc1ccccn1)NCC[C@H]1CC[C@H](NS(=O)(=O)c2ccc(F)cc2)[C@@H](CO)O1 was read as Vaccinia inh -8.1 and Vaccinia inh Venus 5.9.
C[C@H](CO)N1C[C@H](C)[C@@H](CN(C)C(=O)Nc2ccc(F)cc2)Oc2c(NC(=O)C3CCOCC3)cccc2C1=O was read as Vaccinia inh -3.4 and Vaccinia inh Venus -8.1.
For CO[C@H]1CN(C)C(=O)c2cc(NC(=O)Nc3ccc(Cl)cc3)ccc2OC[C@H](C)N(C)C[C@@H]1C the results were Vaccinia inh inconclusive.
Screening C[C@@H]1CN([C@@H](C)CO)C(=O)c2cccc(NC(=O)c3cnccn3)c2O[C@H]1CN(C)S(C)(=O)=O returned Vaccinia inh 7.3 and Vaccinia inh Venus 4.8.
`CC(C)NC(=O)N(C)C[C@@H]1Oc2ccc(NC(=O)Cc3ccccc3)cc2CC(=O)N([C@@H](C)CO)C[C@H]1C` gave Vaccinia inh 17.0 and Vaccinia inh Venus 8.7.
CCCNC(=O)N1[C@H](C#N)[C@H](c2ccc(-c3cccnc3)cc2)[C@@H]1CO was read as Vaccinia inh inconclusive.
Cc1ccc(S(=O)(=O)Nc2ccc3c(c2)C(=O)N([C@@H](C)CO)C[C@H](C)[C@H](CN(C)C(=O)Nc2ccc(C(F)(F)F)cc2)O3)cc1 was read as Vaccinia inh 7.0 and Vaccinia inh Venus 5.4.
For Cc1ccc(S(=O)(=O)Nc2ccc3c(c2)C(=O)N([C@@H](C)CO)C[C@@H](C)[C@H](CN(C)C)OCCCC[C@@H](C)O3)cc1 the results were Vaccinia inh -1.6 and Vaccinia inh Venus 4.8.
COc1ccccc1NC(=O)N[C@H]1CC[C@H](CCNS(=O)(=O)c2ccc(Cl)cc2)O[C@@H]1CO was read as Vaccinia inh -12.3 and Vaccinia inh Venus -8.0.
`C[C@H]1CCCCO[C@H](CN(C)CC2CCCCC2)[C@@H](C)CN([C@@H](C)CO)C(=O)c2cc(NC(=O)Nc3ccccc3)ccc2O1` gave Vaccinia inh inconclusive.
Screening CC(C)(C)[S@](=O)N1Cc2cc(C(=O)N[C@@H]3CCN(Cc4ccccc4)C3)nc(-c3cccc(-c4ccncc4)c3)c2[C@@H]1CCO returned Vaccinia inh -9.1 and Vaccinia inh Venus -0.4.
CO[C@H]1CN(C)C(=O)c2cc(NC(C)=O)ccc2OC[C@@H](C)N(C(=O)Cc2ccccn2)C[C@H]1C was read as Vaccinia inh 9.4 and Vaccinia inh Venus 1.1.
Screening C[C@H]1CN([C@@H](C)CO)C(=O)c2cc(C#Cc3ccc(F)cc3)cnc2O[C@@H]1CN(C)C(=O)c1ccccc1F returned Vaccinia inh inconclusive.
Screening C[C@H](CO)N1C[C@H](C)[C@H](CN(C)C(=O)Nc2ccccc2C(F)(F)F)OCc2cnnn2CCCC1=O returned Vaccinia inh 5.1 and Vaccinia inh Venus 11.8.
COc1ccc2c3c([nH]c2c1)[C@H](CO)N(C(=O)c1cccnc1)CC31CCN(Cc2cccnc2)CC1 was read as Vaccinia inh 8.3 and Vaccinia inh Venus 1.1.
CCCNC(=O)Nc1ccc2c(c1)C(=O)N(C)C[C@H](OC)[C@H](C)CN(C(=O)C1CC1)[C@@H](C)CO2 was read as Vaccinia inh 5.2 and Vaccinia inh Venus 6.5.
`C[C@H]1CCCCO[C@H](CN(C)S(=O)(=O)c2ccc(F)cc2)[C@@H](C)CN([C@@H](C)CO)C(=O)c2cc(NS(C)(=O)=O)ccc2O1` gave Vaccinia inh -0.2 and Vaccinia inh Venus -6.6.
C[C@@H]1CN([C@H](C)CO)C(=O)Cc2cc(NC(=O)C3CCCCC3)ccc2O[C@H]1CN(C)Cc1ccc2c(c1)OCO2 was read as Vaccinia inh -0.9 and Vaccinia inh Venus -6.7.
Screening CCNC(=O)C[C@H]1CC[C@@H]2[C@H](COc3ccc(NC(=O)Nc4ccc(C)cc4)cc3C(=O)N2C)O1 returned Vaccinia inh 9.3 and Vaccinia inh Venus 6.1.
`CO[C@@H]1CN(C)C(=O)c2cc(NS(=O)(=O)c3ccc(C)cc3)ccc2OC[C@@H](C)N(C)C[C@@H]1C` gave Vaccinia inh -9.8 and Vaccinia inh Venus -8.3.
For Cc1ccc(S(=O)(=O)N(C)C[C@H]2OCCCC[C@H](C)Oc3ccc(N(C)C)cc3C(=O)N([C@H](C)CO)C[C@@H]2C)cc1 the results were Vaccinia inh -30.1 and Vaccinia inh Venus -18.2.
`COc1ccc(CN(C)C[C@@H]2OCCCC[C@@H](C)Oc3ccc(NC(=O)CCC(F)(F)F)cc3C(=O)N([C@@H](C)CO)C[C@@H]2C)cc1` gave Vaccinia inh -30.3 and Vaccinia inh Venus -22.4.

Reprinted at random: two records from the list.
`C[C@H]1CCCCO[C@H](CN(C)S(=O)(=O)c2ccc(F)cc2)[C@@H](C)CN([C@@H](C)CO)C(=O)c2cc(NS(C)(=O)=O)ccc2O1` gave Vaccinia inh -0.2 and Vaccinia inh Venus -6.6.
COc1ccc2c3c([nH]c2c1)[C@H](CO)N(C(=O)c1cccnc1)CC31CCN(Cc2cccnc2)CC1 was read as Vaccinia inh 8.3 and Vaccinia inh Venus 1.1.

The results go on.
O=C(C[C@@H]1C[C@@H]2c3cc(NS(=O)(=O)c4ccc(F)cc4)ccc3O[C@@H]2[C@@H](CO)O1)NCCc1ccccc1 was read as Vaccinia inh -12.1 and Vaccinia inh Venus -7.6.
COc1ccc(CN(C)C[C@H]2Oc3ccc(NC(=O)CCC(F)(F)F)cc3CC(=O)N([C@H](C)CO)C[C@@H]2C)cc1 was read as Vaccinia inh 0.7 and Vaccinia inh Venus -0.7.
For CN1CCCCN2[C@@H](CO)[C@H](c3ccc(Br)cc3)[C@@H]2C1 the results were Vaccinia inh 7.3 and Vaccinia inh Venus -9.0.
`Cc1noc(C)c1NC(=O)Nc1cccc2c1O[C@@H](CN(C)Cc1ccc(C(=O)Nc3ccccc3N)cc1)[C@@H](C)CN([C@@H](C)CO)C2=O` gave Vaccinia inh 3.9 and Vaccinia inh Venus -7.3.
CNC[C@H]1Oc2c(NC(=O)Nc3ccccc3)cccc2C(=O)N([C@@H](C)CO)C[C@@H]1C was read as Vaccinia inh 3.4 and Vaccinia inh Venus -2.5.
COCC(=O)N1CCCCN2[C@H](CO)[C@@H](c3ccc(-c4ccc(OC)cc4)cc3)[C@H]2C1 was read as Vaccinia inh 13.3 and Vaccinia inh Venus 1.2.
COc1cccc(CNC(=O)C[C@@H]2C=C[C@@H](NC(=O)C3CC3)[C@H](CO)O2)c1 was read as Vaccinia inh 3.3 and Vaccinia inh Venus 4.2.
Screening COc1ccc2c3c([nH]c2c1)[C@@H](CO)N(Cc1cccc(F)c1)CC31CCN(C(C)=O)CC1 returned Vaccinia inh -1.7 and Vaccinia inh Venus -3.7.
Screening Cc1ccc(S(=O)(=O)NC[C@H]2CC[C@H]3[C@H](CN3Cc3ccccc3C(=O)O)O2)cc1 returned Vaccinia inh 6.3 and Vaccinia inh Venus 6.7.
Screening C[C@@H]1CN([C@@H](C)CO)C(=O)c2cc(NS(=O)(=O)c3cn(C)cn3)ccc2O[C@@H](C)CCCCO[C@@H]1CN(C)C(=O)Nc1ccc2c(c1)OCO2 returned Vaccinia inh 9.3 and Vaccinia inh Venus 6.6.
For Cc1ccc(S(=O)(=O)N(C)C[C@@H]2Oc3c(NC(=O)c4ccncc4)cccc3C(=O)N([C@H](C)CO)C[C@H]2C)cc1 the results were Vaccinia inh 1.8 and Vaccinia inh Venus 7.1.
CCS(=O)(=O)Nc1ccc2c(c1)C(=O)N(C)[C@H]1CC[C@@H](CC(=O)Nc3ccccc3)O[C@@H]1CO2 was read as Vaccinia inh -4.8 and Vaccinia inh Venus -8.7.
`CN1C(=O)c2cc(NC(=O)c3ccc4c(c3)OCO4)ccc2OC[C@H]2O[C@@H](CC(=O)O)CC[C@H]21` gave Vaccinia inh 1.1 and Vaccinia inh Venus 5.1.
For Cn1cnc(S(=O)(=O)N[C@@H]2CC[C@H](CC(=O)NCC3CCCCC3)O[C@H]2CO)c1 the results were Vaccinia inh 9.9 and Vaccinia inh Venus 12.9.
`COCC(=O)N[C@H]1C=C[C@H](CC(=O)N2CCCCC2)O[C@@H]1CO` gave Vaccinia inh 4.5 and Vaccinia inh Venus 0.0.
O=C(c1ccc(F)cc1)N1CCCCN2[C@@H](CO)[C@@H](c3ccc(-c4ccc(F)cc4)cc3)[C@@H]2C1 was read as Vaccinia inh inconclusive.
Screening C[C@@H]1CN([C@@H](C)CO)C(=O)c2cc(NC(=O)CCCN(C)C)ccc2O[C@@H]1CN(C)S(=O)(=O)c1cccs1 returned Vaccinia inh 18.1 and Vaccinia inh Venus 20.1.
Screening Cc1ccc(-c2ccc3c(c2)O[C@@H](CN(C)C(=O)Nc2ccc(F)cc2)[C@H](C)CN([C@H](C)CO)S3(=O)=O)cc1 returned Vaccinia inh inconclusive.
For CC(C)[C@@H](C)NC(=O)N(C)C[C@@H]1OCc2ccccc2-c2ccccc2C(=O)N([C@@H](C)CO)C[C@@H]1C the results were Vaccinia inh 5.6 and Vaccinia inh Venus -4.0.
Screening COc1ccc(NC(=O)N(C)C[C@H]2OCCCC[C@H](C)Oc3ccc(NC(=O)C4CCCCC4)cc3C(=O)N([C@@H](C)CO)C[C@H]2C)cc1 returned Vaccinia inh 1.8 and Vaccinia inh Venus 5.5.
For C[C@@H]1CCCCO[C@H](CN(C)C(=O)Nc2ccc(F)cc2)[C@@H](C)CN([C@H](C)CO)C(=O)c2cc(NC(=O)c3ccncc3)ccc2O1 the results were Vaccinia inh -1.3 and Vaccinia inh Venus -3.3.
For C[C@@H]1CN([C@H](C)CO)C(=O)c2cc(C#Cc3ccncc3)cnc2O[C@@H]1CN(C)C(=O)CN(C)C the results were Vaccinia inh 20.6 and Vaccinia inh Venus 6.8.
CCCNC(=O)N1[C@@H]2CNC[C@H]1C2c1ccc(-c2cccc(C#N)c2)cc1 (stereo partly drawn) was read as Vaccinia inh -9.1&-8.7 and Vaccinia inh Venus -15.6&-4.2.

Gathered by group: the compounds so far containing a cyano group (3)
Screening N#C[C@H]1[C@H](c2ccccc2)[C@H](CO)N1C(=O)c1ccccc1F returned Vaccinia inh 8.9 and Vaccinia inh Venus 13.4.
CCCNC(=O)N1[C@H](C#N)[C@H](c2ccc(-c3cccnc3)cc2)[C@@H]1CO was read as Vaccinia inh inconclusive.
CCCNC(=O)N1[C@@H]2CNC[C@H]1C2c1ccc(-c2cccc(C#N)c2)cc1 (stereo partly drawn) was read as Vaccinia inh -9.1&-8.7 and Vaccinia inh Venus -15.6&-4.2.
